Bioassay records as filed in PubChem.
PMP22 txn – modulators of PMP22 gene transcription in S16 Schwann cells; Potency, µM (highest dose often 57.5 µM), inactives show at the highest dose activity change, negative = inhibition, hits mostly inhibitors; S16 Pmp22-F2sN Schwann cells (luciferase reporters placed in the Pmp22 gene), FLuc/NLuc coincidence luminescence, 24 h; 43,000 tested, 2% active; AID 1508649; active = clear falling dose curves in both reporters; inconclusive = both reporters move, but less clearly or upward; inactive = either reporter flat; the % is the NLuc reporter signal; also: % is scaled to controls: 0 for no effect and ±100 for the full control effect; some results filed as inactive show a strong effect at the top dose
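Transcriptional readout in edited S16(c9) cells: two luciferases reported from the Pmp22 locus, measured in turn after 24 h compound incubation.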
HTT promoter inh – inhibitors of huntingtin promoter activity | 48,000 tested, 0.93% active | HEK293 HTT promoter firefly luciferase reporter (activity 0% = vehicle and -100% = no light), 24 h | Potency, µM (top dose mostly 57.5 µM), for the others: top-dose activity change, negative = inhibition, usual class: inhibitors; active = well fitted inhibition curve with a large enough effect; inconclusive = small, poorly fitted or top-dose-only effect; inactive = no such curve, though single readings can be large or run the other way; also: nearly all actives have a fitted effect of over 50% in size
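HEK293 cells carrying firefly luciferase reporters were seeded at 2,500 per well in Opti-MEM and cultured for 24 h. They were then treated with compounds at up to 57.5 uM final for 24 h at 37 degrees C before Dual-Glo luminescence readout.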
An asterisk follows results filed as active; ? = inconclusive; / = not tested or not shown; & = joins results of further samples; [ ] = dose if it differs, or a comment. Potency is read from the fitted curve at half-maximal effect.

SMILES | PMP22 txn | HTT promoter inh
O=C(Nc1nc2n(n1)C(c1ccc(F)cc1)C=C(c1ccc(Cl)cc1)N2)c1ccc([N+](=O)[O-])cc1 (stereo not given) | ? | ?
CC(C)NC(=O)CSc1nc2ccccc2c(=O)n1Cc1ccc(C(=O)NC(C)C)cc1 | -6% | 2%
COc1ccc(CCNC(=O)CSc2nc3ccccc3nc2Cc2ccc(C)cc2)cc1OC | -13% | 1%
CCOc1ccccc1CNC(=O)c1ccc(Cn2c(=O)c3cccn3c3cccnc32)cc1 | -12% | -5%
CCOc1ccc(Nc2c(S(=O)(=O)c3ccccc3)cnc3ccc(CC)cc23)cc1 | ? | ?
COc1ccccc1Cn1cc(C(=O)c2ccc(C)cc2)c(=O)c2cc3c(cc21)OCCO3 | ? | ?
O=c1ccc2cc(S(=O)(=O)NCc3ccc(Cl)cc3)ccc2[nH]1 | -4% | -18%
CC(=O)Nc1cccc(NC(=O)Cc2csc(COc3cccc(C)c3)n2)c1 | 1% | ?
COC(=O)c1sc(N2C(=O)c3oc4cc(C)c(C)cc4c(=O)c3C2c2ccccc2F)nc1C (stereo not given) | 3% | -19%
O=C(Nc1ccc(Cl)cc1)C(NS(=O)(=O)c1cccs1)c1ccccc1 (stereo not given) | 12% | -21%
CCN1CCN(C(c2ccc(C)cc2)c2c(O)cc(C)n(Cc3ccco3)c2=O)CC1 (stereo not given) | -8% | -5%
COc1ccc(CNC(=O)c2cc3cc(OC)ccc3oc2=O)cc1 | -24% | 0%
O=C(COc1ccccc1)OCc1cc(=O)n2nc(C3CC3)sc2n1 | ? | -5%
Cc1cn[nH]c1 | / | 3%&-3%
CCc1ccccc1NC(=O)C1CCCN(c2ncnc3onc(C)c23)C1 (stereo not given) | ? | -29%
O=C(COCc1cc(-c2ccc3c(c2)OCO3)on1)NCc1ccc(F)cc1 | -3% | -19%
Oc1c(C(c2ccccc2F)N2CCCC2)sc2nc(-c3ccco3)nn12 (stereo not given) | 33% | 0%
COc1ccc(C(=O)Oc2c(Sc3ccc(C)cc3)c(C)nn2C(C)(C)C)c(OC)c1 | 4% | ?
COc1ccc(NC(=O)Cn2c(=O)ccc3cc(S(=O)(=O)N4CCCC4)ccc32)cc1Cl | -8% | ?
CCCC(=O)NCC(c1ccc2c(c1)OCO2)N1CCN(c2ccccc2)CC1 (stereo not given) | ? | -6%
CCOc1cccc2sc(NC(=O)c3ccc(S(=O)(=O)N4CCCCC4)cc3)nc12 | -2% | ?
CCCCn1c(SCC(=O)Nc2ccc(F)cc2)nc2c(sc3ccccc32)c1=O | -25% | -13%
COc1ccc(N2CCN(S(=O)(=O)CCNC(=O)COc3cccc(OC)c3)CC2)cc1 | 4% | ?
CCC1CN(C(=O)N2CCC(C(=O)NCc3ccco3)CC2)c2ccccc2O1 (stereo not given) | 2% | 8%
CCCn1cc(S(=O)(=O)c2ccc(C)cc2)c(=O)c2cc(F)c(N3CCCC3)cc21 | -5% | 3%
CN(C)c1ccc(C(CNS(=O)(=O)c2ccccc2)N2CCc3ccccc32)cc1 (stereo not given) | -3% | 21%
CC(C)Cn1cc(C(=O)N2CCN(c3cccc(Cl)c3)CC2)c2c3ccccc3n(C)c2c1=O | ? | ?
COc1cccc(CNC(=O)CCCn2nc(C)c3sc4ccccc4c3c2=O)c1 | -11% | 7%
CSc1ccc(CNC(=O)Cn2nc(N3CCN(c4ccccc4)CC3)ccc2=O)cc1 | 3% | -1%
COC(=O)c1cc(S(=O)(=O)N2CCN(c3cccc(C)c3)C(C)C2)c[nH]1 (stereo not given) | -15% | ?
Cc1cc(N2CCCCC2)nc2ccc(NC(=O)CCC(=O)N3CCN(c4ccccc4)CC3)cc12 | -143% | -15%
CCc1ccccc1NC(=O)Cn1c(-c2nonc2N)nc2ccccc21 | -5% | 3%
CCOc1ccc(CCNC(=O)CN2C(=O)COc3ccc(S(=O)(=O)N(CC)CC)cc32)cc1 | -23% | -25%
COCCCNC(=O)c1sc2nc3n(c(=O)c2c1C)CCC3 | -14% | 31%
O=C(Nc1nnc(S(=O)(=O)N2CCCCCC2)s1)c1ccccc1F | ? | 40%[activator]
CCOc1ccc(C(CC(=O)Nc2cc(C)c(Cl)cc2OC)N2Cc3ccccc3C2=O)cc1OC (stereo not given) | ? | -23%

13 neighbouring compounds already listed:
SMILES | PMP22 txn | HTT promoter inh
O=C(Nc1nc2n(n1)C(c1ccc(F)cc1)C=C(c1ccc(Cl)cc1)N2)c1ccc([N+](=O)[O-])cc1 (stereo not given) | ? | ?
CC(C)NC(=O)CSc1nc2ccccc2c(=O)n1Cc1ccc(C(=O)NC(C)C)cc1 | -6% | 2%
COc1ccc(CCNC(=O)CSc2nc3ccccc3nc2Cc2ccc(C)cc2)cc1OC | -13% | 1%
CCOc1ccccc1CNC(=O)c1ccc(Cn2c(=O)c3cccn3c3cccnc32)cc1 | -12% | -5%
CCOc1ccc(Nc2c(S(=O)(=O)c3ccccc3)cnc3ccc(CC)cc23)cc1 | ? | ?
COc1ccccc1Cn1cc(C(=O)c2ccc(C)cc2)c(=O)c2cc3c(cc21)OCCO3 | ? | ?
O=c1ccc2cc(S(=O)(=O)NCc3ccc(Cl)cc3)ccc2[nH]1 | -4% | -18%
CC(=O)Nc1cccc(NC(=O)Cc2csc(COc3cccc(C)c3)n2)c1 | 1% | ?
COC(=O)c1sc(N2C(=O)c3oc4cc(C)c(C)cc4c(=O)c3C2c2ccccc2F)nc1C (stereo not given) | 3% | -19%
O=C(Nc1ccc(Cl)cc1)C(NS(=O)(=O)c1cccs1)c1ccccc1 (stereo not given) | 12% | -21%
CCN1CCN(C(c2ccc(C)cc2)c2c(O)cc(C)n(Cc3ccco3)c2=O)CC1 (stereo not given) | -8% | -5%
COc1ccc(CNC(=O)c2cc3cc(OC)ccc3oc2=O)cc1 | -24% | 0%
O=C(COc1ccccc1)OCc1cc(=O)n2nc(C3CC3)sc2n1 | ? | -5%

Further results follow:
SMILES | PMP22 txn | HTT promoter inh
COc1ccc(C(=O)NCC(c2ccc3c(c2)OCO3)N2CCN(c3ccc(F)cc3)CC2)cc1 (stereo not given) | ? | ?
Cc1c(CC(=O)NCCc2ccccc2F)c(=O)oc2cc(O)c(Cl)cc12 | 3% | -9%
CCCSCCCNC(=O)C1CCCN(c2nn3cc(-c4ccc(OC)cc4)nc3s2)C1 (stereo not given) | ? | ?
CCS(=O)(=O)N1CCc2cc(C(=O)NCc3ccc(C)cc3)ccc21 | -39% | -15%
CCC(C)NC(=O)c1cc(Sc2cccc(Cl)c2)nc2ccccc12 (stereo not given) | ? | ?
CC(C)Cn1c(=O)c2sccc2n2c(CCCC(=O)NCCc3ccccc3)nnc12 | -9% | -7%
CCOC(=O)c1c(-c2ccc(OC)cc2)oc2ccc(OCc3ccccc3C)cc12 | -5% | -1%
CC(CCc1ccccc1)NC(=O)Cn1c(=O)nc(-c2ccccc2)c2ccccc21 (stereo not given) | -5% | 4%
Cc1ccc(Cl)cc1N1CCN(S(=O)(=O)c2cc3[nH]c(=O)c(=O)[nH]c3cc2C)CC1 | -32% | -9%
COc1ccc(N2CCN(Cc3nc4c(c(=O)[nH]c(=O)n4C)n3CC(C)C)CC2)cc1 | -8% | -2%
COc1ccc(CCn2cc3c(c2-c2ccc(Br)cc2)c(=O)n(C)c(=O)n3C)cc1OC | -23% | -8%
Cc1ccc(-n2c(=O)c3cccnc3n2CC(=O)Nc2ccccc2C(F)(F)F)cc1C | 1% | -23%
Cc1ccc(C(=O)/C=C/c2cn(CC(O)CN3CCCCCC3)c3ccccc23)cc1 (stereo not given) | ? | -12%
CCOCCCNc1nc2cc(OC)c(OC)cc2c2nc(-c3ccccc3)nn12 | ? | -3%
COc1cccc(CNC(=O)CCS(=O)(=O)c2cc3c4c(c2)CCN4C(=O)CC3)c1 | 10% | -18%
Cc1c(Cl)cccc1NC(=O)NCc1c(-n2cccc2)sc2c1CCCC2 | -9% | -7%
CCOC(=O)Cn1nc(C)c(NC(=O)COc2ccc(C)c(C)c2)c1C | -10% | 17%
Cc1ccccc1Nc1c(-c2ccc(Cl)s2)nc2cccc(C)n12 | ? | 0%
O=C(Cn1c(SCCOc2ccc(Cl)cc2)nc2ccccc21)N1CCCCC1 | ? | ?
CSc1ncc(C(=O)NCc2cccc(F)c2)c(-c2ccccc2)n1 | -5% | -6%
Cc1cccc(-n2ccnc2SCC(=O)Nc2ccccc2C(F)(F)F)c1 | -19% | -9%
CCN(CC)S(=O)(=O)c1ccc2c(c1)N(CC(=O)Nc1ccccc1F)C(=O)C1CCCN21 (stereo not given) | -20% | -10%
O=c1c(-c2cc(-c3ccccc3)nc3c2COc2ccc(Cl)cc2-3)coc2ccc(F)cc12 | 1% | -7%
Cc1cccc(C)c1-n1ncc(C(=O)NCCCN2CCCCC2)c1C1CCN(C(=O)OC(C)(C)C)CC1 | ? | -14%
Cc1ccc(-c2noc(-c3ccc(N4CCCCC4)c([N+](=O)[O-])c3)n2)cc1 | -4% | ?
Cc1cc(Br)ccc1NC(=O)C(NS(=O)(=O)c1cccs1)c1ccccc1 (stereo not given) | -3% | -26%
Cc1cc(C)cc(NC(=O)c2cc(S(=O)(=O)N3CCc4ccccc43)cn2C)c1 | ? | -22%
COCCCNC(=O)c1c(NC(=O)Cc2coc3cc(C)ccc23)sc2c1CCCC2 | ? | -38%
CC(C)(C)C(=O)NCCCC(=O)O | / | 12%
CCC1CN(C(=O)Nc2ccc(Br)cc2F)c2ccccc2S1 (stereo not given) | -50% | 0%
Cc1nn(CC(=O)Nc2ccc(OC(F)(F)F)cc2)c(=O)c2c(C)n(-c3ccc(Cl)cc3)nc12 | -6% | -1%
Cc1ccc2c(=O)cc(C(=O)Nc3ccc(S(=O)(=O)N4CCCCC4)cc3)oc2c1 | -15% | -15%[11.5 µM]
CC1=C(C(=O)Nc2ccc(C)cc2Cl)C2(CCCCCC2)OC1=O | -7% | -6%
COc1cc(OC)cc(C(=O)Nc2ccc(-c3nc4cc(C(C)C)ccc4o3)cc2)c1 | -89% | -25%
CCOc1ccccc1C(=O)N1CCc2cc(OC)c(OC)cc2C1COc1ccc(OC)cc1 (stereo not given) | -17% | ?
CCOC(=O)c1c(NC(=O)c2cc(CC)on2)sc(C(C)=O)c1C | 11% | -2%
COc1ccc(NC(=O)CN(C)S(=O)(=O)c2cnc[nH]2)cc1Cl | -11% | 3%
CC(=O)Nc1ccc(NC(=O)c2oc3ccc4c(c3c2C)C(=O)CC(C)(C)O4)cc1 | ? | 5%
CCCCCCn1c(CNC(=O)c2ccccc2)nc2ccccc21 | -18% | ?
COc1ccc(-c2cc3c(=O)n(CC(=O)Nc4ccc(Br)c(C)c4)ccn3n2)cc1OC | -20% | -1%
CC1CCN(S(=O)(=O)c2ccc3c(c2)N(CC(=O)NCCCOC(C)C)C(=O)CO3)CC1 | -4% | -15%
O=C(O)CCCCn1c(SCC(=O)Nc2ccccc2C(F)(F)F)nc2ccsc2c1=O | 4% | 4%
CC(C)CCOc1ccc(Oc2nc(N(C)C)nc(N(C)C)n2)nn1 | -30% | -3%
Cc1ccc2nc(NC(=O)c3nc(SCc4ccccc4C)ncc3Cl)sc2c1 | -1% | -9%
COc1ccc(-c2[nH]ncc2C(=O)NCc2cccc(F)c2)cc1 | 13% | -28%
O=C(NC1(C(F)(F)F)C(=O)Nc2c1c(=O)[nH]c(=O)n2-c1ccc(F)cc1)c1ccccc1 (stereo not given) | -2% | -10%
COc1ccc(NC(=O)c2ccco2)cc1NC(=O)c1cc(Cl)ccc1OC | ? | ?
CC(C)(C)c1ccc(C(=O)CCCN2CCC(OC(c3ccccc3)c3ccccc3)CC2)cc1 | / | 4%
COc1ccc(C(=O)NCC(c2ccc3c(c2)OCO3)N2CCN(C)CC2)cc1OC (stereo not given) | 28% | -4%
CCc1ccccc1NC(=O)CN1C(=O)c2cccnc2Sc2ccccc21 | 8% | -5%
Cc1ccc(CNC(=O)c2ccc(CSCc3ccc(Cl)cc3)o2)cc1 | -21% | -21%
CCC1CCCCN1C(=O)CCS(=O)(=O)c1cc2c(cc1C)NC(=O)CO2 (stereo not given) | -12% | -6%
CCOC(=O)c1sc2ccccc2c1S(=O)(=O)N1CCN(c2cccc(C)c2C)CC1 | -9% | -6%
CCCCNC(=O)CSc1nc2n[nH]c(C)c2c(=N)n1-c1cccc(Cl)c1C | ? | ?
Cc1ccc(-c2noc(-c3cccnc3NCc3ccco3)n2)cc1 | -28% | 62%[activator]
Cc1ccc(CN(Cc2ccco2)C(=O)COc2ccc(C)c(C)c2)cc1 | -88% | -7%
COCCCNC(=O)C1CCN(c2nn3cc(-c4ccc(F)cc4)nc3s2)CC1 | 6% | 8%
Cc1ccc(N(C)C(=O)CN2C(=O)CCc3cc(S(=O)(=O)N4CCOCC4)ccc32)cc1 | ? | -16%
COCCNc1oc(-c2ccccc2)nc1S(=O)(=O)c1ccc(Br)cc1 | -3% | -23%
